Screens from PubChem.
CSC inhib: cancer stem cell inhibition. cancer stem cell-like cells viability, luminescence. inhibition, % at 7.5 µM. 1.1% of 300,000 active. AID 2717;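 active means mean at 75% or more and at least half the replicates too; inconclusive means mean and replicates disagree; tested in HMLE shEcad cells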;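 further: 0% = median of negative and 100% = median of positive control wells; the first replicate is given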
eIF4H inh: inhibitors of RNA binding by human eIF4H | AID 2012 | 0.94% of 290,000 active | eIF4H fluorescence polarization binding assay | inhibition, % at 35 µM;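 active means 50% or more with normal probe brightness, or confirmed in later tests; inconclusive means above 50% with abnormal brightness, or retests that disagree; inactive means below 50% or failed in later tests; about a fifth of its hits are not listed in these tables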;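 further: calls also rest on retests at 20 µM and on dose response follow-up; 0% = protein and probe with vehicle and 100% = probe without protein; strong numbers were not always called active; many hits fall short of the cut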
Env fusion inh: blocks HIV Env-driven cell-cell fusion | HeLa-JRFL Env/CEM21 cell fusion, luciferase | inhibition, % at 12.3 µM | 1.1% of 360,000 active;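 active means mean replicate inhibition score of at least 50 and every replicate individually at or above 50; inconclusive means only one of the two criteria met; inactive means mean below 50 and not all replicates reaching 50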;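 further: 0% = plate neutral controls and 100% = maraviroc near 300 nM; one replicate is shown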
PABP FP inh: PABP-poly(A) binding inhibition. P11940. PABP-poly(A) RNA binding, fluorescence polarization. inhibition, % at 35 µM. 1% of 290,000 active. AID 2014;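 active means 50% or more with normal probe brightness, or confirmed in later tests; inconclusive means above 50% with abnormal brightness, or retests that disagree; inactive means below 50% or failed in later tests; about a fifth of its hits are not listed in these tables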;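 further: calls also rest on retests at 20 µM and on dose response follow-up; controls were probe without protein and protein plus probe with vehicle; some compounds called inactive have numbers as strong as hits; many hits fall short of the cut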
Target sequence (P11940 whole entry, looked up): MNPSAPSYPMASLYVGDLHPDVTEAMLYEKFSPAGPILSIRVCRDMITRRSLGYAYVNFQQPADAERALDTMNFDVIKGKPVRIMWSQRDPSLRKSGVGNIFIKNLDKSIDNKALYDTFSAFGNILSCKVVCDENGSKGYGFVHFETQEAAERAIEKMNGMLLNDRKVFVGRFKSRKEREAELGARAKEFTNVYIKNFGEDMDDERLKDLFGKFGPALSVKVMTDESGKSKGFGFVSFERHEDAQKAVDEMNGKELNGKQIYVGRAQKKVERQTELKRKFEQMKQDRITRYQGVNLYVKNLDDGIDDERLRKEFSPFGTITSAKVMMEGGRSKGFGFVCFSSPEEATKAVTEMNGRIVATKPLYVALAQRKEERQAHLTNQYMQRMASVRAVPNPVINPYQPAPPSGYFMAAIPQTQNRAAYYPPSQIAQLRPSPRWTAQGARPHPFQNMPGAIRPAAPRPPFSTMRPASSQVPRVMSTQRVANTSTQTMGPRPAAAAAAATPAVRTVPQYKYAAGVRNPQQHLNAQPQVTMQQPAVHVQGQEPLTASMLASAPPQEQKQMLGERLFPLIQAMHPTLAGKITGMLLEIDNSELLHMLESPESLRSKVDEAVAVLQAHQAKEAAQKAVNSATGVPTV
MT1-MMP act inh: MT1-MMP (human) activation inhibition | P50281 | HT1080 RFP-PRO-GFP cells, GFP/RFP ratio fluorescence, overnight; percent of plate control window, DMSO zero | GFP/RFP ratio change, % at 20 µM | 0.061% of 360,000 active | AID 651647;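 active means GFP/RFP ratio change of at least 30% with cell ATP level not reduced by more than half and red fluorescence within 50% of control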; further: strong numbers were not always called active
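Test system: HT1080 cells expressing an RFP-PRO-GFP fluorescent reporter construct / Compound dosing: single-point 20 µM compound, 1% DMSO / Schedule: cells overnight before dosing, compound overnight, 37 °C, 5% CO2 / Evaluation: GFP/RFP fluorescence ratio / Control set: DMSO and RFP-L50D-GFP cell wells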
Rce1 inh: yeast Ras-converting enzyme inhibition | calls only | Q03530 | yeast membranes, quenched prenylated peptide cleavage fluorescence | 0.27% of 290,000 active;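 active means fall in fluorescence gain of 50% or more versus controls, with final raw signal at or below 3038400; inconclusive means same 50% fall but final raw signal above 3038400; inactive means fall in fluorescence gain under 50%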;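 further: plate controls were neutral control wells for no effect and wells lacking membranes for full effect; tested at 10 µM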
Target sequence (Q03530 whole entry, looked up): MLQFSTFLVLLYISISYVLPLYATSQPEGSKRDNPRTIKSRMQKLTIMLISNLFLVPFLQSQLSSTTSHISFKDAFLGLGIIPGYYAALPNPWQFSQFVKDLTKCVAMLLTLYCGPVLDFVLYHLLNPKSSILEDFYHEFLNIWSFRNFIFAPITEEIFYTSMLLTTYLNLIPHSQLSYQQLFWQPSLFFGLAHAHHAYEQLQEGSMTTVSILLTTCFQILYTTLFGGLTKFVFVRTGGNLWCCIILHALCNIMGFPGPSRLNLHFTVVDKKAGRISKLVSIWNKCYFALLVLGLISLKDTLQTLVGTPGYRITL
UUG fidelity: modulators of start codon recognition fidelity in yeast; activity score, % at 18.7 µM; S. cerevisiae UUG-firefly luciferase reporter, luminescence/redox ratio; 0.13% of 350,000 active; AID 602363;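 active means replicate mean at a twofold rise or more, about +100% in these data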;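 further: firefly luciferase made from a UUG start codon reports start codon fidelity; reporter light over untreated wells divided by growth signal over untreated wells; some hits fall short of that in this replicate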
eIF4H inh retest: second read-out of eIF4H inh, no call of its own (marks repeat the call); inhibition, %; compound at 20 µM; confirmation average;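 mean of two retest wells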
PABP FP inh retest: recorded beside PABP FP inh, whose call it bears; inhibition, %; compound at 20 µM; confirmation repeats;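 mean of two retest wells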
MT1-MMP act inh RFP: further read-out of MT1-MMP act inh, marked with its call; RFP signal change, %; measured here: RFP expression control read;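 0 = vehicle wells; hits needed this value within 50% of zero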
An asterisk follows results filed as active; i = inactive; ? = inconclusive; / = no result given; & = joins results of further samples; [ ] = another dose, or the depositor's remark.

Start of the listing, in advance:
SMILES | CSC inhib | eIF4H inh | Env fusion inh | PABP FP inh | MT1-MMP act inh | MT1-MMP act inh RFP | Rce1 inh | UUG fidelity | others
C=CCn1c(CCNC(=O)c2cccs2)nnc1SCC(=O)c1ccc(Cl)cc1 | / | 5 | 12 | 2 | -2 | -6 | i | -13
CC1CN(C(=O)CSc2nc(-c3ccccc3)cs2)CC(C)O1 (configuration not stated) | -12 | -5 | / | -2 | -3 | 0 | i | -12
CC(=O)Nc1ccc(C(=O)NNC(=O)CCCCC(=O)NNC(=O)c2ccc(NC(C)=O)cc2)cc1 | 1 | / | -15 | / | 0 | 1 | i | /

All compounds of this part, from the start:
SMILES | CSC inhib | eIF4H inh | Env fusion inh | PABP FP inh | MT1-MMP act inh | MT1-MMP act inh RFP | Rce1 inh | UUG fidelity | others
C=CCn1c(CCNC(=O)c2cccs2)nnc1SCC(=O)c1ccc(Cl)cc1 | / | 5 | 12 | 2 | -2 | -6 | i | -13
CC1CN(C(=O)CSc2nc(-c3ccccc3)cs2)CC(C)O1 (configuration not stated) | -12 | -5 | / | -2 | -3 | 0 | i | -12
CC(=O)Nc1ccc(C(=O)NNC(=O)CCCCC(=O)NNC(=O)c2ccc(NC(C)=O)cc2)cc1 | 1 | / | -15 | / | 0 | 1 | i | /
CC(C)CN1C(=O)c2ccc(NC(=O)c3ccco3)cc2C1=O | -4 | 1 | 3 | 2 | -2 | 2 | i | /
COC(=O)C[C@@H]1C=C[C@@H](NS(=O)(=O)c2ccc(OC)cc2)[C@@H](CO)O1 | / | / | -14[16.7 µM] | / | -4 | 2 | / | -9
Cc1c([N+](=O)[O-])c(C(=O)Nc2ccc3c(c2)OCCO3)nn1C | -9 | 5 | -63 | 12 | 3 | -1 | i | -13
O=C(N/N=C/c1cccc(Oc2ccccc2)c1)c1cccc(O)c1 | 60 | 5 | -22 | 4 | 7 | -3 | i | -8
CC(=O)N1CCN(c2cc3c(cc2F)c(=O)c(C(=O)O)cn3C2CC2)CC1 | -8 | 6 | 13 | 4 | -13 | -1 | i | /
C=C(C)CNC(=S)N/N=C/c1ccccc1OCC(=O)O | / | 0 | -4 | 11 | 1 | -3 | i | /
OC(COc1ccc2ccccc2c1Cl)CN1CCOCC1 (configuration not stated) | -11 | -1 | / | -5 | 7 | 2 | / | -21
O=C(Cn1c2ccccc2c(=O)c2ccccc21)Nc1cccc(F)c1 | -3 | -18 | 8 | -3 | 1 | 0 | / | /
O=C(Nc1ccc(S(=O)(=O)N2CCc3ccccc3C2)cc1)C1CCCO1 (configuration not stated) | 6 | 0 | / | 8 | 7 | -1 | i | 4
O=C(NCCOc1ccc(Cl)cc1)c1ccco1 | / | -7 | -20 | 15 | 0 | -1 | i | -5
COc1ccc2c(c1OC)C(=O)N1C2SC(C)(C)[C@H]1C(=O)NC(C)C (some centres not stated) | -2 | 4 | -8 | -2 | -4 | -2 | i | -6
CCC(C)N1CC(=O)N2C(c3ccc(OC)cc3OC)c3[nH]c4ccccc4c3C[C@H]2C1=O (some centres not stated) | -19 | 1 | 6 | -2 | 3 | 2 | i | 9
CCN(CC)CC(O)COc1ccc2c(c1)OCO2 (configuration not stated) | -11 | -9 | / | 6 | 0 | 1 | i | -1
CCSc1cnnc2ccccc12 | / | / | -46 | / | -3 | 0 | / | -13
Cc1cc(/C=C(/C#N)c2nc3ccccc3[nH]2)c(C)n1-c1cc(C(=O)O)cc(C(=O)O)c1 | / | ? | -3 | -10 | -37 | 9 | i | /
CCCCC(=O)NC1(C(F)(F)F)C(=O)Nc2c1c(=O)[nH]c(=O)n2Cc1ccco1 (configuration not stated) | -11 | 14 | / | 14 | -8 | 6 | i | -1
CCC(C(=O)Nc1cc(OC)c(NC(=O)c2ccccc2)cc1OC)c1ccccc1 (configuration not stated) | 79* | 8 | 9 | 4 | 6 | 4 | i | -15
CCC(CC)c1nnc(NC(=O)C2CCN(C(=O)c3ccco3)CC2)s1 | -20 | -1 | -7 | 7 | 3 | 2 | i | 4
O=C(C1CCC(C(=O)N2CCc3ccccc32)CC1)N1CCc2ccccc21 (configuration not stated) | 10 | 4 | / | -13 | -1 | 0 | i | 1
COC(=O)c1ccc(NC(=O)[C@H](C)NC(N)=O)cc1 | -8 | -4 | 16 | -5 | 4 | 2 | i | -9
Cc1ccc(S(=O)(=O)CC(=O)c2ccccc2)cc1 | -5 | 4 | / | -9 | 2 | 7 | i | /
CN(CC(N)=O)S(=O)(=O)c1ccc(F)cc1 | / | -1 | -66 | 4 | -1 | 8 | i | -9
C=CCNc1nc(Cl)ncc1F | -19 | 2 | / | -10 | -4 | 4 | i | -16
COc1ccc(C2=NN(C(=O)CN3CCCCC3)C(c3ccc(C)cc3)C2)cc1 (configuration not stated) | -1 | -3 | 2 | -1 | 1 | -3 | i | 0
COC(=O)c1sc(NC(=O)Cc2cccs2)nc1C | -2 | -11 | -99 | -7 | -1 | -2 | i | -35
CC(C)(C)N(Cc1ccccc1)C(=O)CSc1nnc(CNc2ccc(F)cc2)o1 | 5 | -1 | 27 | 8 | -1 | -6 | i | -2
COc1cc(S(=O)(=O)Nc2ccc(Br)cc2)ccc1N | 4 | -4 | -15 | -10 | 0 | -3 | i | 1
c1ccc(C2CC(c3cccs3)=NN2c2ccccc2)cc1 (configuration not stated) | 24 | 42 | -10 | 17 | -7 | -8 | i | -18
CCCCN1C(=O)c2ccc(C(=O)Nc3ccccc3N3CCOCC3)cc2C1=O | -8 | -1 | 0 | -3 | -2 | -4 | i | /
COC(=O)CCCC1=CC2=CC(=O)C(C)(OC(=O)c3cccs3)C(=O)C2=CN1Cc1ccccc1 (configuration not stated) | -5 | 41 | -17 | 25 | 1 | 10 | i | -5
CCOc1ccc(C(=O)NCC(=O)OCc2c(C)noc2C)cc1OCC | 11 | -5 | 8 | -3 | -4 | -1 | i | /
COc1ccc(CCNC(=O)c2c(C)nc3ccccn23)cc1OC | / | 0 | 11 | -5 | 1 | -3 | i | -13
CCOP(=O)(OCC)C(NC(=O)Nc1ccccc1)C(N)=O (configuration not stated) | 5 | 1 | 18 | -1 | -2 | 4 | i | /
Cc1ccc(-n2c(Cc3cccs3)nnc2SCC(=O)OC(C)C)cc1 | -13 | -4 | 7 | -12 | 0 | 1 | / | -15
COC(=O)c1sccc1NC(=O)CSc1ccccc1N | 1 | -2 | 10 | -11 | 2 | 3 | i | /
CCOC(=O)N1CCC2(CC1)C(C#N)=C(N)OC1=C2C(=O)CC(C)C1 (configuration not stated) | -1 | -5 | 14 | -2 | 3 | 4 | i | -10
Nc1ccc(C2(c3ccc(N)cc3)C(=O)Nc3ccccc32)cc1 | -22 | -5 | / | -2 | 5 | 4 | i | /

Grouped by structure, those above containing four or more nitrogen atoms.
SMILES | CSC inhib | eIF4H inh | Env fusion inh | PABP FP inh | MT1-MMP act inh | MT1-MMP act inh RFP | Rce1 inh | UUG fidelity | others
C=CCn1c(CCNC(=O)c2cccs2)nnc1SCC(=O)c1ccc(Cl)cc1 | / | 5 | 12 | 2 | -2 | -6 | i | -13
CC(=O)Nc1ccc(C(=O)NNC(=O)CCCCC(=O)NNC(=O)c2ccc(NC(C)=O)cc2)cc1 | 1 | / | -15 | / | 0 | 1 | i | /
Cc1c([N+](=O)[O-])c(C(=O)Nc2ccc3c(c2)OCCO3)nn1C | -9 | 5 | -63 | 12 | 3 | -1 | i | -13
Cc1cc(/C=C(/C#N)c2nc3ccccc3[nH]2)c(C)n1-c1cc(C(=O)O)cc(C(=O)O)c1 | / | ? | -3 | -10 | -37 | 9 | i | /
CCCCC(=O)NC1(C(F)(F)F)C(=O)Nc2c1c(=O)[nH]c(=O)n2Cc1ccco1 (configuration not stated) | -11 | 14 | / | 14 | -8 | 6 | i | -1
CCC(CC)c1nnc(NC(=O)C2CCN(C(=O)c3ccco3)CC2)s1 | -20 | -1 | -7 | 7 | 3 | 2 | i | 4
CC(C)(C)N(Cc1ccccc1)C(=O)CSc1nnc(CNc2ccc(F)cc2)o1 | 5 | -1 | 27 | 8 | -1 | -6 | i | -2

Continued.
SMILES | CSC inhib | eIF4H inh | Env fusion inh | PABP FP inh | MT1-MMP act inh | MT1-MMP act inh RFP | Rce1 inh | UUG fidelity | others
Cc1cc(C)c(NC(=S)N(Cc2cccnc2)Cc2ccco2)c(C)c1 | 3 | -1 | -8 | 10 | -3 | -7 | i | -20
O=C(CSc1nnc(-c2ccccc2Br)o1)Nc1nncs1 | -13 | 11 | 3 | 6 | -2 | -2 | i | -10
CNC(=O)C1(c2ccccc2)CCCCC1 | / | / | -20 | / | 2 | 7 | / | 6
CCNC(=O)N1CCCC(C(=O)c2ccc(OC)c(OC)c2)C1 (configuration not stated) | -11 | 8 | 13 | 5 | 1 | 2 | i | -5
CNC[C@@H]1Oc2cc(Br)ccc2S(=O)(=O)N([C@H](C)CO)C[C@H]1C | / | / | 10 | / | 4 | 6 | / | -4&0&23
CC1CN(Cc2c(O)ccc3c2oc(=O)c2ccccc23)CC(C)O1 (configuration not stated) | 9 | 16 | -13 | 37 | 5 | -14 | i | 156*
O=c1c2c([nH]c3ccccc13)CCCCC2 | 4 | 5 | 10 | -2 | -6 | -5 | i | /
COc1ccc(-c2csc(NC(=O)CSc3n[nH]c(N)n3)n2)cc1 | -4 | -7 | 0 | -11 | 4 | -21 | i | -17
O=S(=O)(Nc1cccnc1)c1ccc(C2CCCCC2)cc1 | -15 | -10 | / | -3 | 0 | -13 | i | -6
C=C(C)C(=O)Nc1cccc(C2=NOC3(C2)C[C@@H](C(N)=O)N(C(=O)[C@H]2CCC(=O)N2)C3)c1 (some centres not stated) | -4 | 103* | / | 39 | 3 | 3 | i | -22 | eIF4H inh retest=90*;PABP FP inh retest=34
Cc1cccc(-n2c(C)n[nH]c2=S)c1C | -2 | -6 | -10 | 5 | 6 | 0 | i | -24
COc1ccc(C(=O)NC2CCN(C(=S)NCc3ccco3)CC2)cc1 | / | 0 | / | -18 | -5 | 0 | i | -13
O=c1cc(Cn2ccnc2)c2cc3c(cc2o1)CCC3 | -8 | -3 | -71 | 0 | -4 | 2 | i | -4
Cc1c(C)n(C)c2ccc(C(=O)NCCc3ccco3)cc12 | -5 | 4 | -8 | 8 | 33* | 31* | i | -17
CCOC(=O)C(NC(C)=O)(Nc1ccc(S(=O)(=O)Nc2ccncn2)cc1)C(F)(F)F (configuration not stated) | / | 6 | / | 2 | 1 | 2 | i | -15
Cc1ccc2cc(C=O)c(Cl)nc2c1 | -7 | 7 | -2 | 4 | 1 | 1 | i | /
CCOC(=O)c1ccc(NC(=O)c2ccccc2C)cc1 | 1 | 6 | -12 | 9 | 18 | -1 | i | -1
COc1ccc(CCN(C(=S)Nc2ccccc2)C2CC(=O)N(c3ccccc3)C2=O)cc1 (configuration not stated) | 3 | -4 | / | -8 | 1 | -9 | i | -10
Cc1ccc(-c2ccc(=O)n(Cc3ccc(F)cc3Cl)n2)cc1 | 21 | -8 | -5 | -5 | 5 | -6 | i | -13
COC(=O)c1cc(C(=O)c2ccc(Cl)cc2Cl)cn1C | 10 | 4 | 23 | -4 | -6 | 0 | i | -7
O=C(/C=C/c1ccccc1)N(Cc1cccc(Cl)c1)C1CCS(=O)(=O)C1 (configuration not stated) | -6 | -15 | -9 | -6 | 0 | 3 | i | /

Outcome played no part in choosing rows, and some 3% of all compounds hit somewhere here.
